ALR H2O2 inh = inhibitors of human sulfhydryl oxidase ALR. P55789. purified ALR, DTT oxidation, H2O2 HRP-luminol luminescence. inhibition, % (test concentration not listed). 3.8% of 290,000 active. AID 485317;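 active means mean and each replicate at 75% or more; inconclusive means only one of the two met; inactive means neither met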;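 further: stock transfer was 7.5 nL into about 7.5 µL; 0% = neutral wells and 100% = wells with inactivated enzyme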
T cruzi inh = blocks replication of Trypanosoma cruzi | 1.4% of 300,000 active | AID 1885 | T. cruzi beta-gal in NIH3T3, luminescence, 90 h | inhibition, % (no concentration beside the values);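 active means mean inhibition across valid replicates above about 55%, limit read from the data; inconclusive means mean below that limit but half or more replicates reach it; inactive means mean below it, under half of replicates reach it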;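 further: signal also drops with host cell toxicity which is not excluded here; 0% = plate median of DMSO wells and 100% = zero luminescence signal; higher percent means less beta-gal luminescence so fewer parasites; stock transfer was 50 nL into about 50 µL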
Calb FLC = affects C. albicans growth with fluconazole | C. albicans CaCi-2 (fluconazole-resistant clinical isolate) + fluconazole, Alamar Blue growth, 48 h | growth inhibition, % (concentration not given with the values) | 0.57% of 300,000 active;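 active means most replicates above 75%; inconclusive means exactly half above 75%; inactive means most below 75%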;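 further: all wells also contain fluconazole at 8 µg/ml as a sub-toxic cotreatment; 0% = median of DMSO wells and 100% = median of geldanamycin control wells; wells of about 8 µL received 7.5 nL stock; the first replicate is given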
LANA-H2A inh = blocks KSHV LANA binding to histone H2A/H2B; cell-free LANA-H2A/H2B peptide, fluorescence polarization; 0.6% of 320,000 active; inhibition, % (test concentration not listed); in the data active means inhibition mostly above about 10%, no sharp cut-off; inactive means mostly below about 6.7%;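 further: stock transfer was 7.5 nL into about 10 µL; 0% = median of vehicle wells and 100% = median of positive control wells; one replicate is shown; the record names a cut of 25% in any replicate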
Target sequence (Q9QR71 whole entry, looked up): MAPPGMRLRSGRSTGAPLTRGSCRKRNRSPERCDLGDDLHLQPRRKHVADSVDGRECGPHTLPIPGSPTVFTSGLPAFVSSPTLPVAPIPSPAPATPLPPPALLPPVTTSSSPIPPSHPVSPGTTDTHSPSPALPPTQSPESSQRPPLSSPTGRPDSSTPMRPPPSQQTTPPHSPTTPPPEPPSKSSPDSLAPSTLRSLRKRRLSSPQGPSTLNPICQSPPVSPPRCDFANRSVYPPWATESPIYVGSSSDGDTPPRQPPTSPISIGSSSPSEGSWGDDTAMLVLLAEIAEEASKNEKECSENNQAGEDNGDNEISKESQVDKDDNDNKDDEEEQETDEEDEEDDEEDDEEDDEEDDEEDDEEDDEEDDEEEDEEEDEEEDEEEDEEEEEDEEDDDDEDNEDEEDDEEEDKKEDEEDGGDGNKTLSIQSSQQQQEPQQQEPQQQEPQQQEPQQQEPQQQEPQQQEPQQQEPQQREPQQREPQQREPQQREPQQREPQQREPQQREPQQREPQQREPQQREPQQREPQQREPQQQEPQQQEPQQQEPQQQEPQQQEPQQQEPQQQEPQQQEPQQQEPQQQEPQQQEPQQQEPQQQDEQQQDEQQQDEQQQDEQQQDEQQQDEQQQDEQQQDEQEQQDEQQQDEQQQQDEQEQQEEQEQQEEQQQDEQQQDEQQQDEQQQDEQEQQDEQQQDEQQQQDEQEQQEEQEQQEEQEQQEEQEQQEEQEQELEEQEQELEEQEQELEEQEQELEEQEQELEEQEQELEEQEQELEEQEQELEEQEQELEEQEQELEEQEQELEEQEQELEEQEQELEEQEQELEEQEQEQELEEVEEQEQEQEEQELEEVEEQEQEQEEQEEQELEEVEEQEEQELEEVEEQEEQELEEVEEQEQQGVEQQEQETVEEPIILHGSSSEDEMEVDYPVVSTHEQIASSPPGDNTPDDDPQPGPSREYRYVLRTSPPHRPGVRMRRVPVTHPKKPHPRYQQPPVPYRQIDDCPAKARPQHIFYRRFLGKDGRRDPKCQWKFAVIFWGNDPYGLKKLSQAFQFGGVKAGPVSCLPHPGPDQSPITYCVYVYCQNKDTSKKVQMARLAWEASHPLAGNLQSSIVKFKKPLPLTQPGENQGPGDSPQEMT
Ecoli rRNA inh = inhibitors of bacterial rRNA selective over humanized ribosomes | GFP signal change (wild-type ribosome), % (test concentration not listed) | E. coli WT GFP vs humanized-ribosome RFP mutants, fluorescence, 24 h; active compounds read low; DMSO median 0, no signal -100 | AID 720706 | 1.6% of 350,000 active;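 active means significant combined selectivity score with lowered wild-type GFP, culture density cut under 30%, mutant RFP and density less affected; inactive means any of these conditions unmet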; further: one replicate is shown; some compounds called inactive have numbers as strong as hits
B2AR ag = agonists of human beta-2 adrenergic receptor inducing internalization | response, % (no concentration beside the values) | AID 504454 | 0.43% of 340,000 active | Am2.2-beta2AR cells, FAP receptor internalization, flow cytometry; reference of the scale not given here;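 active means response above a set limit, near 3 SD of response in nonfluorescent compounds, cut at about 42% in these data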;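 further: stock transfer was 100 nL into about 11 µL; a reference agonist was the positive control; negative values mostly stem from fluorescent compounds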
Beta apoptosis = blocks beta cell apoptosis. INS-1E cytokine-induced death, ATP luminescence, 48 h; percent of positive-control rescue, neutral wells zero. protection from apoptosis, % (concentration not given with the values). 0.8% of 300,000 active;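 active means all replicates at 75% or more, or half of them and the mean; inconclusive means half reach 75% but not the mean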;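 further: 0% = cytokine-treated negative control wells and 100% = positive control rescue; higher means more ATP so stronger rescue from cytokine killing; wells of about 40 µL received 100 nL stock; the first replicate is given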
A1 inh = inhibitors of the anti-apoptotic protein A1, read as caspase activation; MEF A1-2A-BIM cells, Caspase-Glo 3/7 luminescence, 3 h; percent of clofoctol response, vehicle zero; caspase activation, % (no concentration beside the values); 0.066% of 330,000 active; AID 2462;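 active means over half of replicate activation scores above 10%, or exactly half above 10 with the replicate mean above 10; inconclusive means replicate mean below 10 yet half the replicates above 10; inactive means over half of replicates below 10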;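 further: wells of about 30 µL received 50 nL stock; many hits fall short of the cut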
Ecoli rRNA inh OD600 = recorded beside Ecoli rRNA inh, whose call it bears; OD600 change, %; measured here: OD600 growth;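 optical density of the mix in the first replicate; 0 = DMSO median and -100 = no signal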
Ecoli rRNA inh RFP = also measured in Ecoli rRNA inh; calls as there; RFP signal change, %; measured here: RFP humanized mutant strains;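 first replicate; 0 = DMSO median and -100 = no signal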
Active calls of the source: *; ? = inconclusive; / = no result given; & = joins results of further samples. Not all compounds are listed; count on the stated rates, not on these rows.

SMILES	ALR H2O2 inh	T cruzi inh	Calb FLC	LANA-H2A inh	Ecoli rRNA inh	Ecoli rRNA inh OD600	Ecoli rRNA inh RFP	B2AR ag	Beta apoptosis	A1 inh
Cc1cc([N+](=O)[O-])cnc1N1CCOCC1	0	-13	-14	-6.5	10	-7	5.3	6	-4	-0.8
C[C@H](CO)N1C[C@H](C)[C@@H](CN(C)S(=O)(=O)c2ccc(F)cc2)Oc2ccc(NS(=O)(=O)c3ccccc3)cc2C1=O	-7	/	/	-4.7	-3	0	-5.2	-2	-5	0.4
Cc1cc(C)c2c(n1)sc1c(N3CCN(CCO)CC3)ncnc12	14	25	0	0.6	/	/	/	-9	14	-2.6
O=C(Nc1nnc(SCC(=O)N2CCCCC2)s1)c1c(F)cccc1F	5	-5	5	1.8	-9	-13	-0.2	-1	-4	0.2
O=C1CCc2cc(S(=O)(=O)N3CCN(C(=O)c4ccco4)CC3)ccc2N1	-19	-2	-11	2.8	/	/	/	1	-7	0.0
O=C1CC(NS(=O)(=O)c2cccs2)CN1c1ccc(Cl)cc1 (configuration not stated)	/	-12	5	-0.1	-10	-10	2.5	-1	-3	2.0
O=C(O)/C=C/c1ccc(OCCCF)cc1	2	-8	-2	1.8	1	6	0.4	1	/	0.5
CC(NC(=O)COc1ccc(Oc2ccccc2)cc1)C(=O)O (configuration not stated)	-4	-3	-2	0.3	/	/	/	-6	/	0.2
Cc1n[nH]c(C)c1C(=O)CC1(O)C(=O)N(CCc2ccccc2)c2ccc(Cl)cc21 (configuration not stated)	-2	10	-6	-0.8	/	/	/	-4	-5	0.1
COc1ccc(NC(=O)C(=O)Nc2cccc3cccnc23)c(OC)c1	-6	-7	-2	2.2	15	20	0.7	0	/	-1.0
CC(OC(=O)c1ccc2c(=O)n3c(nc2c1)CCCCC3)C(=O)Nc1ncc(Cl)cc1Cl (configuration not stated)	-2	1	0	-3.9	0	-7	-1.9	-5	-2	1.2
Cc1cc(C(=O)N2CCN(Cc3ccc4c(c3)OCO4)CC2)cs1	-2	13	-31	-1.8	-9	-11	-7.2	3	-1	1.1
Cc1ccc(/C=N/NC(=O)c2cccc3ccccc23)o1	-2	-11	-4	1.4	2	4	-2.8	-4	5	0.9
Cc1cc(Br)ccc1SCC(=O)OCC(=O)c1c(N)n(C)c(=O)n(C)c1=O	-5	-14	-4	3.9	-35	-30	-0.2	-7	-3	-0.9
CC1(c2ccccc2)NC(=O)N(NC(=O)CSc2n[nH]c(N)n2)C1=O (configuration not stated)	-3	-9	-3	-3.3	8	8	0.3	-5	-8	0.9
COc1cc2c(cc1OC)C(C(=O)Nc1ccccc1N1CCN(C)CC1)C1c3ccccc3CCN1C2=O (configuration not stated)	-5	16	1	-1.1	2	11	3.0	-1	-5	1.2
CCOC(=O)c1csc(N/N=C2\CCc3ccccc32)n1	0	2	5	-0.3	-46	-77	-18	18	-2	-0.4
Cc1nnc(SCC(=O)Nc2ccc3c4c(cccc24)CC3)n1C	-30	-8	1	6.9	-7	-10	1.4	7	-3	0.6
COc1ccc(/C=N/NC(=O)CCCCCNC(=O)c2ccccc2)cc1	-3	-7	?	3.2	0	-7	1.9	-2	-5	-0.3
COc1ccc(-c2csc(NC(C)=O)n2)cc1OC	11	-11	4	-3.2	/	/	/	2	-5	-0.9
Cc1cccc(C(=O)N/C(=C\c2ccco2)C(=O)N2CCCCCC2)c1	9	4	2	-5.2	3	2	3.3	3	-2	-1.0
O=S(=O)(c1ccc2c(c1)CCN2)N1CCOCC1	78*	/	/	-3.2	3	4	1.2	6	-9	1.6
COc1ccc(C2(C(=O)Nc3c(C)n(C)n(-c4ccccc4)c3=O)CCCC2)cc1OC	5	-24	-3	-8.3	/	/	/	-4	-4	0.5
CC(=O)Nc1ccc2nc(NC(=O)COc3cccc(C)c3)sc2c1	-5	5	-41	-2.1	-10	14	0.4	-3	-3	0.6
COc1cc2c(cc1OC)C1=NC(=O)CN1C(SCc1ccccc1)=N2	-5	/	/	-0.3	/	/	/	-3	37	0.0
More records follow.
SMILES	ALR H2O2 inh	T cruzi inh	Calb FLC	LANA-H2A inh	Ecoli rRNA inh	Ecoli rRNA inh OD600	Ecoli rRNA inh RFP	B2AR ag	Beta apoptosis	A1 inh
C[C@@H]1CN([C@@H](C)CO)C(=O)c2cc(NS(C)(=O)=O)ccc2O[C@H]1CN(C)Cc1ccc(Oc2ccccc2)cc1	-11	/	/	-3.4	-2&-41	-7&-48	-1.1&-4.7	-8	-11	2.0
O=C(NNC(=O)c1cccs1)c1cccnc1	-2	-5	-3	-5.4	2	11	-1.0	-1	0	0.0
Cn1c2c(c(=O)n(C)c1=O)C(c1ccc(Br)cc1)Nc1ccccc1O2 (configuration not stated)	-9	-18	17	1.2	/	/	/	-8	0	0.1
COc1ccc(C2CCCN2C(=S)Nc2ccc(C)cc2C)cc1OC (configuration not stated)	3	-1	25	2.4	-6	-5	-3.6	9	1	1.5
Cc1ccc(C)c(NC(=O)CCn2cnnn2)c1	-2	-1	2	4.5	3	-1	-2.2	4	71	0.0
CCN(CC(=O)Nc1cccc(OC)c1)CC(=O)Nc1ccc(Br)c(C)c1	-18	32	-6	1.9	-54*	-40*	-15*	7	-1	-0.4
CS(=O)(=O)N(Cc1nc(-c2ccc(F)cc2)no1)c1ccccc1Cl	/	/	/	-2.7	4	5	12	-4	-2	1.8
CCC(Oc1ccccc1)C(=O)Nc1ccc(C)c(S(=O)(=O)N2CCOCC2)c1 (configuration not stated)	-4	5	-2	2.1	-12	-17	-1.8	3	-5	-0.5
COc1cccc(N2CC(=O)N(NC(=O)CSc3nc(C)cc(C)c3C#N)CC2=O)c1	-1	18	?	4.3	/	/	/	-2	1	0.2
CC(=O)Nc1ccc(SCc2c(C)noc2C)cc1	99*	-6	6	1.2	3	2	-2.0	5	4	0.9
Cn1c(=O)n(C)c2cc(C(=O)O)ccc21	-2	0	-5	3.4	/	/	/	-4	-3	0.6
O=C(Nc1ccccc1N1CCCCC1)c1ccc(OC(F)F)cc1	-4	36	10	6.1	-2	-7	-0.1	-10	/	-0.4
Cc1onc(-c2ccccc2)c1C(=O)NCc1ccccc1F	-9	-8	0	-0.3	6	-3	-0.5	7	0	1.0
COc1ccc(CCN=C2SCC(=O)N2Cc2ccccc2)cc1OC	-1	-4	-8	1.8	-33	-50	-8.4	4	-3	0.3
Cc1cc(CNC(=O)c2cccc3c2C(=O)c2ccc(-c4ccc(F)cc4OCc4ccccc4)cc2S3(=O)=O)c(C(F)(F)F)o1	8	/	/	-3.4	-3	-2	1.1	4	1	0.1
O=C(Nc1ccc(Oc2ccsc2C(=O)O)cc1)c1ccccc1	-1	10	12	0.3	-1	-8	-1.2	3	-5	0.4
CCOC(=O)c1c(NC(=O)CN2CCN(C)CC2)sc(C(=O)Nc2ccccc2)c1C	-13	18	2	0.5	-1	-11	-0.4	-22	5	-0.4
Cc1nn(Cc2ccccc2Cl)c2sc(C(=O)NCc3ccc4c(c3)OCO4)cc12	1	0	-3	1.9	/	/	/	4	-8	0.3
CC(C)C1N(C(=O)N2CCOCC2)CCN1S(=O)(=O)c1ccccc1 (configuration not stated)	-4	1	-2	-3.5	2	8	-4.3	0	/	2.6
COc1ccccc1-c1coc2c(CN3CCN(CCO)CC3)c(O)ccc2c1=O	-1	-20	-4	1.7	/	/	/	-6	-6	0.2
CC(C)c1ccc(S(=O)(=O)N2CCN(C(=O)c3ccc(N4CCCC4)c([N+](=O)[O-])c3)CC2)cc1	3	31	-3	5.4	7	1	-1.0	7	6	-0.3
Cc1cc(C)cc(N(C(=O)CNC(=O)c2ccco2)C(C(=O)NC2CCCCC2)c2cccnc2)c1 (configuration not stated)	1	3	-1	-9.3	8	17	-0.2	-13	4	0.5
CCOC(=O)c1cc2c(C)[nH]c(C)c2cc(C(=O)OCC)c1=O	-8	-17	11	-1.7	10	6	7.7	6	/	0.3
COc1ccc(C)cc1NC(=O)CSc1nc2scc(C)c2c(=O)[nH]1	/	-21	9	7.8	4	8	1.4	16	-8	-0.7
CCN1C(=O)C2(SC(NC(C)=O)=NN2C(C)=O)c2cc(C)ccc21 (configuration not stated)	5	-13	32	0.5	/	/	/	-21	-9	0.3

A stretch taken from the entries so far, as a working copy:
SMILES	ALR H2O2 inh	T cruzi inh	Calb FLC	LANA-H2A inh	Ecoli rRNA inh	Ecoli rRNA inh OD600	Ecoli rRNA inh RFP	B2AR ag	Beta apoptosis	A1 inh
CCOC(=O)c1cc2c(C)[nH]c(C)c2cc(C(=O)OCC)c1=O	-8	-17	11	-1.7	10	6	7.7	6	/	0.3
COc1ccc(C)cc1NC(=O)CSc1nc2scc(C)c2c(=O)[nH]1	/	-21	9	7.8	4	8	1.4	16	-8	-0.7
CCN1C(=O)C2(SC(NC(C)=O)=NN2C(C)=O)c2cc(C)ccc21 (configuration not stated)	5	-13	32	0.5	/	/	/	-21	-9	0.3

(cont.)
SMILES	ALR H2O2 inh	T cruzi inh	Calb FLC	LANA-H2A inh	Ecoli rRNA inh	Ecoli rRNA inh OD600	Ecoli rRNA inh RFP	B2AR ag	Beta apoptosis	A1 inh
CCOC(=O)c1c(C)oc2ccc(OCc3cc(C(=O)OC)oc3C)cc12	4	-26	0	-4.1	/	/	/	-5	-2	0.7
CCN(C(=O)CCS(=O)(=O)c1cccc2nonc12)c1ccc(C)c(C)c1	/	13	13	-1.1	11	5	1.8	-6	-5	0.4
Cc1coc(C)c1C(=O)CC1(O)C(=O)Nc2cc(Cl)cc(Cl)c21 (configuration not stated)	-9	-12	-13	0.6	/	/	/	10	-13	0.1
O=C(Cc1ccccc1)NNC(=O)Nc1cccc(Cl)c1	-4	0	-55	6.2	/	/	/	-3	-10	-0.2
COc1ccc(NC(=O)O/N=C/c2c(C)nn(C(C)(C)C)c2C)cc1	-16	-4	7	-2.4	-3	8	0.3	-3	4	-2.3
CCOc1ccccc1NC(=O)Nc1cccc(NC(C)=O)c1	9	-1	0	-3.5	16	1	-8.6	-7	2	0.5
O=C(CSc1nnc2scc(-c3ccccc3)n12)Nc1nsc(-c2ccc(Cl)cc2)n1	-1	-8	-3	2.0	/	/	/	3	2	-1.5
O=C(N/N=C/c1cn(-c2ccccc2)nc1-c1ccc2c(c1)OCCO2)c1ccncc1	14	11	17	1.2	9	12	2.6	-14	7	0.0
Cn1c(C(=O)c2ccccc2)nc2ccccc21	0	-1	0	-1.0	6	7	-2.8	-37	-6	-1.4
C/C(CCc1ccccc1)=N\NC(=O)COc1ccccc1C	0	-13	-7	3.2	1	3	-0.3	-6	0	-0.7
COc1cccc(N(C(=O)CNC(=O)c2ccco2)C(C(=O)NC2CCCCC2)c2ccncc2)c1 (configuration not stated)	2	-21	-9	-0.2	/	/	/	-8	/	-0.1
COc1cc(NC(=O)c2cc(OC)c(OC)c(OC)c2)c(OC)cc1NC(=O)CN1CCCCC1	-14	22	-27	-1.0	/	/	/	6	7	0.0
CCN(c1ccccc1)S(=O)(=O)c1ccc2c(c1)CCCN2C(C)=O	-2	10	-4	-1.4	-11	-5	2.9	-4	-11	-0.6
Cc1nc(C)c(C(=O)N/N=C/c2cc(Br)ccc2O)s1	-1	23	89*	-0.6	8	0	-2.5	5	80*	1.2

High-throughput results from PubChem.
